# Bioassay records: PubChem, several laboratories
# BJeLR viability – BJeLR cell viability loss | BJeLR (HRASV12) viability, CellTiter-Glo ATP luminescence, 48 h; reference of the scale not given here | inhibition, % (no concentration beside the values) | 300,000 compounds, 0.17% hits;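 active means replicate mean above 50%; inconclusive means above 50% but judged a plate artefact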;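 further: 50 nL library stock added to about 25 µL; numbers are from one replicate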
# Mtb hypoxia inh – inhibitors of hypoxia-regulated fluorescent reporter in Mycobacterium tuberculosis; M. tuberculosis hypoxia-regulated fluorescent reporter, fluorescence; fluorescence inhibition, % (no concentration beside the values); 300,000 compounds, 0.1% hits; AID 1159583;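 active means 35 to 45% if threefold the growth effect, above 45% if 1.5-fold the growth effect; inactive means the rest, general growth blockers included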;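 further: wells of about 50 µL received 100 nL stock; 0% = vehicle wells and 100% = reference inhibitor wells; whole bacteria with a GFP reporter of the hypoxia response; strong numbers were not always called active; many hits fall short of the cut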
# ugtP null kill – compounds lethal to S. aureus RN4220 ugtP deletion mutant; OD600 growth, 16 h; some inactives read as strong as hits; growth inhibition, % (test concentration not listed); AID 1259309; 330,000 compounds, 0.54% hits;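 active means z-score under -3 and OD600 up to 0.15 on both plates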;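 further: plate controls were untreated wells for no effect and antibiotic for full effect; wells of about 80 µL received 100 nL stock; the first replicate is given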
# RN4220 kill – kills Staphylococcus aureus RN4220; S. aureus RN4220 growth, OD600, 16 h; inhibition, % (test concentration not listed); 330,000 compounds, 0.33% hits;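 active means z-score of -3 or lower and OD600 up to 0.18 on both plates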;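 further: plate controls were untreated cells for no effect and reference antibiotic for full effect; stock transfer was 100 nL into about 80 µL; one replicate is shown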
# Autofluor counter – counter-screen for toxin protease inhibitors: compound fluorescence. compound autofluorescence counterscreen, microsphere flow cytometry; active compounds read high. fluorescence intensity (concentration not given with the values). 360,000 compounds, 3.1% hits. AID 624483;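 active means at least 3 SD above the mean of all compounds, about 16000 in these data; inconclusive means too few beads counted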;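 further: 100 nL of 1 mM stock went into each well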
# PrP UTR inh – suppresses PrP 5' UTR mRNA reporter expression. cell-based PrP 5' UTR mRNA reporter, plate reader. AID 488862. inhibition, % (test concentration not listed). 340,000 compounds, 0.35% hits;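 active means every replicate at 50% or more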;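 further: 0 = median of the neutral control wells; tested in H4 reporter cells; numbers are from one replicate; inactives centre near -14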
# Mtb hypoxia inh growth – second read-out of Mtb hypoxia inh, no call of its own (marks repeat the call); growth inhibition, %; measured here: M. tuberculosis growth (absorbance);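 0% = vehicle and 100% = reference antibiotic; read after six days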
# The depositor's hits bear a star; ? = inconclusive; . = not tested or not shown; & = joins results of further samples.
SMILES,BJeLR viability,Mtb hypoxia inh,Mtb hypoxia inh growth,ugtP null kill,RN4220 kill,Autofluor counter,PrP UTR inh
CC(C)C(=O)N1CCN(c2ccc(NC(=O)c3ccc([N+](=O)[O-])o3)cc2)CC1,-0.7,.,.,-0.2,9.5,3817,-25.1
COC(=O)c1ccc(C2C(C(=O)c3ccc(C)o3)=C(O)C(=O)N2c2cc(C)on2)cc1 (stereo not drawn),1.9,-3.5,-4.6,1.6,12.6,5186,-6.0
COc1ccc(CCN2C(=O)c3cccc4cccc(c34)C2=O)cc1OC,9.5,.,.,.,.,17334*,-20.4
COc1c2occc2c(OC)c2c(=O)cc(C(F)(F)F)oc12,0.9,.,.,4.1,0.3,3048,-6.2
O=C1CC(c2ccc(F)cc2)SC(N(c2ccccc2)c2ccccc2)=N1 (stereo not drawn),-2.2,-5.3,-0.3,-11.2,-3.2,2159,-25.0
COc1ccc(-c2csc(NC(=O)CSCC(=O)Nc3cc(C)on3)n2)cc1,.,4.3,1.5,11.9,0.4,3676,-27.5
O=c1cc(CO)occ1OCc1ccccc1,-1.2,4.5,5.3,0.6,1.0,3131,-31.1
CC(C)Oc1ccc(CCC(=O)NNC(=S)NCc2ccccc2)cc1,-6.9,-5.7,5.2,-8.0,1.8,4064,-25.0
CCN1CCN(c2ccc(S(=O)(=O)N3CCOCC3)cc2NC(=O)CCSC)CC1,.,2.4,-10.7,6.1,-1.5,8018,-16.3
Oc1c(C=C2N=c3ccccc3=N2)sc(=S)n1-c1ccc(F)cc1,-3.5&1.6,8.4,4.0,-3.4,-7.0,2517&7079,-36.3&-5.3
S=C(NCCc1ccccc1)N1CCOCC1,-1.5,5.4,-2.0,4.2,2.8,2998,-3.6
C=CCNC(=O)C1CC=CCC1C(=O)O (stereo not drawn),-1.2,9.9,8.7,2.6,2.2,4207,-0.1
COc1cc2c(cc1OC)CN(C(=O)COc1ccccc1C#N)CC2,-1.5,-1.1,10.9,3.6,19.3,3787,.
Clc1ccc(-c2cn3c(n2)SCC3)cc1,11.5,5.9,8.4,-2.6,4.2,2614,-60.4
CON(C)S(=O)(=O)c1cccc(C(=O)Oc2ccc(N(C)S(=O)(=O)c3ccccc3)cc2)c1,13.7,8.8,8.1,10.5,1.5,3847,-31.4
COC(=O)/C=C\C(=O)Nc1cccc([N+](=O)[O-])c1,-11.6,-7.6,-2.0,-0.3,0.5,2430,-14.0
O=C(C1CC(=O)N(C2CCCC2)C1)N1CCC(Cc2ccccc2)CC1 (stereo not drawn),0.4,5.4,-2.5,-1.8,-1.6,7123,-8.0
COc1ccc(C2Nc3ccccc3NC3=C2C(=O)CC(C)(C)C3)c(OC)c1OC (stereo not drawn),-5.3,7.3,-3.0,8.2,0.6,4333,-54.9
Cn1c(/C(C#N)=C(\O)c2ccc(Cl)s2)nc2ccccc21,-2.8,-0.3,1.9,-1.3,5.1,5541,-73.1
Cn1c(=O)c(-c2ccccc2)nc2ccccc21,1.5,0.0,0.1,2.6,3.2,20471*,-1.3

# Part of the list above, with tabs:
mol	BJeLR viability	Mtb hypoxia inh	Mtb hypoxia inh growth	ugtP null kill	RN4220 kill	Autofluor counter	PrP UTR inh
CON(C)S(=O)(=O)c1cccc(C(=O)Oc2ccc(N(C)S(=O)(=O)c3ccccc3)cc2)c1	13.7	8.8	8.1	10.5	1.5	3847	-31.4
COC(=O)/C=C\C(=O)Nc1cccc([N+](=O)[O-])c1	-11.6	-7.6	-2.0	-0.3	0.5	2430	-14.0

# The list goes on.
SMILES,BJeLR viability,Mtb hypoxia inh,Mtb hypoxia inh growth,ugtP null kill,RN4220 kill,Autofluor counter,PrP UTR inh
O=C(CNC(=O)c1cccc(F)c1)NN=Cc1ccc([N+](=O)[O-])s1,.,9.8,15.6,3.6,8.3,.,.
CCCCn1c(=O)[nH]c(=O)c2c1nc(-c1ccc(-c3ccccc3Br)o1)n2CC,11.5,4.1,7.8,0.1,-4.1,3810,1.1
COc1ccc(CCC(=O)NNC(=O)Nc2cccc(Cl)c2)cc1,7.9,14.5,10.7,-3.0,1.0,5612,-15.3
O=C(CCl)NCCCCCCCCCNC(=O)CCl,-11.8,25.7,15.7,9.3,3.9,2133,-2.4
CCOC(=O)C1CCCN(S(=O)(=O)c2ccc(OC)c3ccccc23)C1 (stereo not drawn),-8.8,6.1,8.1,-8.3,10.5,9579,-8.0
COc1ccc(S(=O)(=O)Cc2ccc(C(=O)N3CCC4(CC3)OCCO4)o2)cc1,-2.0,-10.2,-10.2,-3.2,-1.2,19527*,-23.3
Cc1nc(NCc2ccco2)c2c3c(sc2n1)CCC3,0.9,.,.,-7.2,-0.5,2555,-51.3
Cc1cccc(-n2ncc3c(=O)[nH]c(SCC(=O)N4CC(=O)Nc5ccccc54)nc32)c1,.,-1.7,-5.5,10.4,3.9,?,-4.5
O=C(Nc1cc(=O)c2ccccc2o1)N1CCOCC1,.,-1.0,0.7,7.6,2.0,?,-23.9
Brc1ccc(OCc2nnc(SCC3CCCCC3)o2)cc1,-2.3,-6.8,1.0,23.5,-2.1,10539,-12.7
COc1ccccc1CNC(=O)c1ccccc1NC(=O)C1=C(C)OCCS1,2.8,-3.3,-4.1,-4.3,-1.1,5493,-27.7
CCCN1C2=NCCN2c2cc(C)c(C)cc21,.,.,.,2.5,3.1,2311,-15.2
CCCCn1c(N)c(N(CCC(C)C)C(=O)COC(=O)c2ccc3ccccc3c2)c(=O)[nH]c1=O,.,1.1,-11.8,16.2,8.1,10477,2.5
Cc1c(=O)n(OCc2ccc(Cl)cc2)c2ccccc2[n+]1[O-],-3.0,11.5,6.9,4.5,4.0,3011,-14.8
O=C(COC(=O)C1CCN(S(=O)(=O)c2cc([N+](=O)[O-])ccc2Cl)CC1)Nc1ncc(Cl)cc1Cl,2.0,19.1,18.7,-10.0,3.6,8691,-25.9
Cc1sccc1/C=N/NC(=O)c1cccc2ccccc12,20.9,.,.,.,.,2488,-28.5
Cc1ccc(NC(=S)NNC(=O)c2c([N+](=O)[O-])c(C)nn2C)cc1,4.5,-4.0,5.0,-1.5,2.9,23365*,-3.7
Nn1cnnc1SC1CCCCC1NS(=O)(=O)c1ccccc1 (stereo not drawn),-1.6,.,.,1.1,0.8,3562,-10.0
Cc1ccc(OCCCC(=O)N(C)CC(=O)Nc2ccccc2Cl)cc1,-9.9,0.2,-3.0,2.8,3.7,6538,-6.6
Cc1ccc(S(=O)(=O)N2CC(O)CC2C(=O)O)cc1 (stereo not drawn),-9.4,12.5,-3.8,3.5,2.2,3712,-15.4
COC(=O)C1NC(C(NC(=O)COc2ccccc2)C(=O)NCc2ccc(OC)cc2)SC1(C)C (stereo not drawn),.,21.6,11.4,4.2,8.5,.,.
C=C(C)C(=O)Nc1cccc(C2=NOC3(C2)C[C@H](C(N)=O)N(C(=O)COc2ccc(Cl)cc2)C3)c1 (stereo partly drawn),0.9,.,.,.,.,4014,-14.5
COc1cccc(-c2cn(C[C@H]3CC[C@@H]([C@@H]4CC[C@H](Cn5cc(-c6cccc(OC)c6)nn5)O4)O3)nn2)c1,-24.2,.,.,.,.,3595,-27.6
Cc1cc(O)c2c(C)c(CC(=O)N3C[C@H]4C[C@@H](C3)c3cccc(=O)n3C4)c(=O)oc2c1,6.7,.,.,-12.0,5.2,4837,-18.3
CCC(=O)N1CCc2cc(S(=O)(=O)NCCC(=O)N3CCN(Cc4ccccc4)CC3)ccc21,1.5,4.2,4.4,6.5,3.8,9611,-32.5
Cc1cccc(Cn2c(C(C)O)nc3ccccc32)c1 (stereo not drawn),-3.6,6.0,7.6,1.8,2.3,3074,0.0
COc1ccc2cc(OCC(=O)NNC(=O)Nc3ccc(F)cc3)ccc2c1,7.1,0.7,-4.9,15.1,6.8,4364,1.9
CCn1c(-c2cc(-c3ccc(OC(C)C)cc3)nc3ccccc23)n[nH]c1=S,-1.6,-0.9,3.2,-13.4,2.9,11455,-68.1
Cc1nnc(SCC(=O)Nc2ccc3c(c2)OCO3)n(N)c1=O,-16.4,7.1,5.7,6.3,3.5,3587,-0.7
Nc1ncc2c(n1)-c1cc(Cl)ccc1SC2,4.6,6.0,2.5,3.2,-6.9,3425,-6.3
COc1cc2ncnc(NCc3ccccc3)c2cc1OC,7.6,.,.,2.9,2.3,2424,-3.8
CCN1C(=O)[C@H]2[C@@H](c3ccc(SC4CCCCC4)c(OC)c3)N3CCCC[C@@]3(C(=O)OC)[C@H]2C1=O,-7.0,.,.,.,.,4175,-7.4
Cc1ccc(CNC(=O)c2ccc(Cn3nc(C)cc3C)o2)cc1,7.4,-10.6,0.9,-2.9,-1.2,5472,-13.4
S=c1nc(-c2ccccc2)[nH]c2ccc(Br)cc12,-3.6,0.5,-0.3,2.3,-0.2,5019,-18.3
Cc1noc(/C=C/N(C)C)c1S(=O)(=O)N1CCN(c2ccccc2)CC1,-5.6,1.6,-1.8,8.3,9.8,6238,27.9
C(=C\c1ccc2ccccc2n1)/c1ccccc1,20.5,6.9,0.2,17.2,3.0,5292,57.7*
Cc1ccccc1N=C1NC(=O)/C(=C/c2cccn2C)S1,13.6,0.5,9.7,-23.2,5.1,4345,-48.6
COc1ccc(CN2CCN(S(=O)(=O)c3ccccc3)CC2)c(OC)c1,1.3,-5.9,5.0,0.2,2.1,9659,-14.5
CCN(CC)C(=O)CSc1nc(COc2ccccc2)nc2ccccc12,-10.4,3.7,0.0,-3.6,-7.4,3432,-5.5
O=C(CN1CCN(S(=O)(=O)c2ccccc2)CC1)Nc1cccc(C(F)(F)F)c1,1.2,-7.7,1.1,-5.9,-3.8,3997,5.9
Cc1ccccc1OC(=O)n1c(=S)oc2cc(Cl)ccc21,4.8,-84.8,-18.4,3.3,7.5,8693,-39.5
CCCc1cc(=O)n2[nH]c(-c3ccc(Br)cc3)cc2n1,5.5,.,.,1.7,0.7,4281,-111.5
CCCCOc1cccc(OCC(=O)Nc2nc3ccccc3[nH]2)c1,-11.3,7.9,11.6,-18.4,3.2,2367,-8.2
Cc1cccc(CN2CCSc3sccc3C2=O)c1,3.2,14.0,7.2,2.0,9.5,3531,-15.5
CC(=NNS(=O)(=O)c1ccc(C(C)(C)C)cc1)c1ccc2c(c1)OCO2,.,12.5,6.8,-21.0,-5.0,.,.
COc1cc(/C=C\C(=O)NCc2ccc3c(c2)cc(C)n3C)cc(OC)c1OC,-2.3,.,.,.,.,2962,-33.3
CN(Cc1ccccc1)C(=O)CN1C(=O)COc2ccc(S(=O)(=O)N3CCCC3)cc21,4.5,2.1,0.1,7.8,3.9,5400,-30.5
CCOC(=O)/C=C/c1nc(C(=O)OCC)c(C)c(=O)[nH]1,-3.3,.,.,.,.,4007,-9.5
Cc1ccc(NC(=O)c2nc[nH]c2C(=O)NC(C)C(=O)OC(C)(C)C)cc1 (stereo not drawn),.,-6.3,4.9,0.6,1.7,.,.
O=C1c2ccccc2C(=O)N1/N=C/c1ccc(O)c(O)c1,-16.1,.,.,.,.,1996,-11.6

# Single entries from the results shown.
# `Oc1c(C=C2N=c3ccccc3=N2)sc(=S)n1-c1ccc(F)cc1` in BJeLR viability has -3.5&1.6
# `CCC(=O)N1CCc2cc(S(=O)(=O)NCCC(=O)N3CCN(Cc4ccccc4)CC3)ccc21` in Mtb hypoxia inh has 4.2
# `O=C1CC(c2ccc(F)cc2)SC(N(c2ccccc2)c2ccccc2)=N1` (stereo not drawn) in Mtb hypoxia inh has -5.3
# `O=C(Nc1cc(=O)c2ccccc2o1)N1CCOCC1` in Mtb hypoxia inh has -1.0
# `COc1ccc(CCC(=O)NNC(=O)Nc2cccc(Cl)c2)cc1` in Mtb hypoxia inh has 14.5

# Next section:
SMILES,BJeLR viability,Mtb hypoxia inh,Mtb hypoxia inh growth,ugtP null kill,RN4220 kill,Autofluor counter,PrP UTR inh
COC(=O)C1=C(c2ccccc2)CC2CCC1N2C(=O)NCC1CC1 (stereo not drawn),.,4.1,2.6,-4.8,-2.4,.,.
COc1cc(C(=O)NC2CC(C)(C)Cc3c2cnn3-c2ccccc2)cc(OC)c1OC (stereo not drawn),5.2,.,.,.,.,5029,-23.8
CCN(CC(=O)Nc1cccc(OC)c1)CC(=O)Nc1ccccc1C,6.1,-1.1,2.3,-5.5,2.4,3247,-1.7
CCN1C(=O)[C@H]2[C@H]3CN=C(SCc4ccccc4)N3[C@@](C)(C(=O)OC)[C@H]2C1=O,.,1.6,1.5,6.0,2.8,3938,-21.0
CC(NC(=O)C1CCN(C(=O)Nc2ccccc2)CC1)c1ccccc1 (stereo not drawn),1.1,-9.1,11.3,-1.9,-1.5,5842,-8.5
Clc1nc2ccccc2cc1C=NNc1nc2ccccc2[nH]1,.,4.7,-7.8,-3.4,-5.0,.,.
